Compound activity deposited in PubChem by several laboratories.
Yeast UUG start: yeast start codon fidelity modulation | S. cerevisiae UUG-firefly luciferase reporter, luminescence/redox ratio | activity score, % at 18.7 µM | actives 0.13% (n = 350,000) | AID 602363;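 active = replicate mean at a twofold rise or more, about +100% in these data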;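 note: firefly luciferase made from a UUG start codon reports start codon fidelity; reporter light over untreated wells divided by growth signal over untreated wells; some hits fall short of that in this replicate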
PABP polyA inh: PABP-poly(A) binding inhibition. PABP-poly(A) RNA binding, fluorescence polarization. inhibition, % at 35 µM. actives 1% (n = 290,000);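 active = 50% or more with normal probe brightness, or confirmed in later tests; about a fifth of its hits are not listed in these tables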;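 note: calls also rest on retests at 20 µM and on dose response follow-up; controls were probe without protein and protein plus probe with vehicle; some compounds called inactive have numbers as strong as hits; many hits fall short of the cut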
Target sequence (P11940 whole entry, looked up): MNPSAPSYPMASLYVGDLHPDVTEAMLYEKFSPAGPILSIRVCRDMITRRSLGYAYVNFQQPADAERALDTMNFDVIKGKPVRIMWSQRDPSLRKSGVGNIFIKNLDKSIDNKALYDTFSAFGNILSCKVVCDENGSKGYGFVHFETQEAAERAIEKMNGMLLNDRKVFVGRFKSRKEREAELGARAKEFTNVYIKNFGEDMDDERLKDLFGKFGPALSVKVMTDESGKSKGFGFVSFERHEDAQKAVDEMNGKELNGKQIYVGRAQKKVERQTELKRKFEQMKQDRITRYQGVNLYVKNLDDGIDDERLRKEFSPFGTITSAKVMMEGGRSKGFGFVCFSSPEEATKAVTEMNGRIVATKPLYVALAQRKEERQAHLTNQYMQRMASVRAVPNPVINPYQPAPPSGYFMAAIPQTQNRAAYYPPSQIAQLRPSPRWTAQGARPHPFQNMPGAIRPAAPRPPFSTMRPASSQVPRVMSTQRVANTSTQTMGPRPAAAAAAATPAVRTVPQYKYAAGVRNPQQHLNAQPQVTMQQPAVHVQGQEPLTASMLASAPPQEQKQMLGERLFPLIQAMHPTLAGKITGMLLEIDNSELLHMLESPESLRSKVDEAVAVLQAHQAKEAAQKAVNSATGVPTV
MT1-MMP act inh: blocks activation of human MT1-MMP | HT1080 RFP-PRO-GFP cells, GFP/RFP ratio fluorescence, overnight; percent of plate control window, DMSO zero | actives 0.061% (n = 360,000) | GFP/RFP ratio change, % at 20 µM | P50281;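 active = GFP/RFP ratio change of at least 30% with cell ATP level not reduced by more than half and red fluorescence within 50% of control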; note: strong numbers were not always called active
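Test system: HT1080 RFP-PRO-GFP cells; Benchmarks: DMSO and RFP-L50D-GFP cell wells; Timing: cells overnight before dosing, compound overnight, 37 °C, 5% CO2; Compound: one 20 µM compound dose with 1% DMSO; Read-out: GFP/RFP fluorescence ratio.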
CSC inhib: cancer stem cell inhibition. cancer stem cell-like cells viability, luminescence. inhibition, % at 7.5 µM. actives 1.1% (n = 300,000). AID 2717;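 active = mean at 75% or more and at least half the replicates too; tested in HMLE shEcad cells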;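 note: 0% = median of negative and 100% = median of positive control wells; the first replicate is given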
Env fusion inh: HIV envelope-mediated fusion inhibition; HeLa-JRFL Env/CEM21 cell fusion, luciferase; inhibition, % at 12.3 µM; actives 1.1% (n = 360,000);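 active = mean replicate inhibition score of at least 50 and every replicate individually at or above 50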;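 note: 0% = plate neutral controls and 100% = maraviroc near 300 nM; one replicate is shown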
Rce1 inh: yeast Ras-converting enzyme inhibition; yeast membranes, quenched prenylated peptide cleavage fluorescence; AID 2563; calls only; actives 0.27% (n = 290,000); Q03530;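 active = fall in fluorescence gain of 50% or more versus controls, with final raw signal at or below 3038400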;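 note: plate controls were neutral control wells for no effect and wells lacking membranes for full effect; tested at 10 µM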
eIF4H inh: inhibitors of RNA binding by human eIF4H | inhibition, % at 35 µM | actives 0.94% (n = 290,000) | eIF4H fluorescence polarization binding assay | AID 2012;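 active = 50% or more with normal probe brightness, or confirmed in later tests; about a fifth of its hits are not listed in these tables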;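 note: calls also rest on retests at 20 µM and on dose response follow-up; 0% = protein and probe with vehicle and 100% = probe without protein; strong numbers were not always called active; many hits fall short of the cut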
MT1-MMP act inh RFP: second read-out of MT1-MMP act inh, no call of its own (marks repeat the call); RFP signal change, %; measured here: RFP expression control read;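 0 = vehicle wells; hits needed this value within 50% of zero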
* hit, by the source's call; i = inactive; / = not tested or not shown; + = active, no number.

SMILES	Yeast UUG start	PABP polyA inh	MT1-MMP act inh	MT1-MMP act inh RFP	CSC inhib	Env fusion inh	Rce1 inh	eIF4H inh
CCCC(=O)N1CCN(C2=NS(=O)(=O)c3ccccc32)CC1	-8	-6	2	12	-12	-17	i	4
O=C(N/N=C/c1cc2c(cc1Br)OCO2)c1ccccn1	-12	-6	6	-3	3	-42	i	-6
Cc1ccc2c(c1)-c1cc(C)nn1C(c1sccc1C)N2 (stereo not drawn)	-21	-2	0	-4	16	-39	i	-1
COCCNC(=S)N/N=C(\C)c1ccc(C)c([N+](=O)[O-])c1	/	-3	2	0	-6	-40	i	-4
Cc1ccc(Cl)cc1NC(=O)c1cc(NC(=O)C2CCCCC2C(=O)O)ccc1N1CCOCC1 (stereo not drawn)	0	-4	0	0	0	8	i	-1
COc1ccc(NS(=O)(=O)c2cccc(N/C(=N\S(=O)(=O)c3ccccc3)c3ccc(F)cc3)c2)cc1	-9	10	-7	-20	9	-1	i	-4
COc1ccc(N(CC(=O)Nc2ccccc2C)S(=O)(=O)c2c(C)[nH]c(=O)[nH]c2=O)cc1	-3	-2	0	5	-12	0	i	2
COc1ccc(-n2cc(-c3ccccc3)nc2SC)cc1	/	-7	-2	1	0	-20	i	-1
CC1(CC(=O)O)SC(=O)NC1=O (stereo not drawn)	-3	11	0	2	24	-46	i	-1
Cc1cc(C)cc(Oc2coc3cc(OC(=O)c4cccnc4)ccc3c2=O)c1	-7	0	-2	3	/	-14	i	-5
O=C(/C=C/c1ccc(S(=O)(=O)N2CCOCC2)cc1)NC(CO)C(O)c1ccc([N+](=O)[O-])cc1 (stereo not drawn)	-16	/	0	3	-23	2	/	/
CS(=O)(=O)N(CC(=O)N1CCN(c2ccccc2F)CC1)c1cc(C(F)(F)F)ccc1Cl	-15	2	-3	-5	5	/	i	-2
Cc1ccc(S(=O)(=O)N2CCCCC2)cc1NC(=O)COC(=O)c1cccn1C	-8	/	10	-12	-11	21	/	/
Cc1ccc2c(c1)[C@H]1[C@H](CO2)[C@H](c2ccccc2)[C@]2(C)C(=O)Nc3ccc(Br)cc3C(=O)N12	-19	/	-26	-17	/	49	/	/
COc1ccc(-c2ocnc2C(=O)Nc2ccc(N3CCOCC3)cc2N2CCOCC2)cc1OC	6	8	1	-2	/	5	i	-3
C/C(Cn1nnc2ccccc21)=N\OC(=O)c1ccccc1C	/	13	3	4	-5	8	i	0
O=C(NC(=S)Nc1ccc(S(=O)(=O)NC2CCCCC2)cc1)c1cccs1	-13	1	-3	-12	21	/	i	2
COc1ccc(NC(=O)c2ccc(CN(c3cc(Cl)ccc3C)S(=O)(=O)c3ccccc3)cc2)cc1OC	-17	5	-4	-7	21	/	i	5
N#C/C(=N\O)c1nc2ccccc2[nH]1	/	5	1	5	-23	-9	i	-8
CCOC(=O)C1CCCN(C(=O)c2sc3nc4n(c(=O)c3c2C)CCC4)C1 (stereo not drawn)	0	/	-4	0	0	/	/	/
CCc1c(C)c(C#N)c2nc3ccccc3n2c1NCc1ccccn1	-12	6	0	2	-8	-31	i	-2
CCN(CCCCN1C(=O)c2ccccc2C1=O)c1ccc2c(c1)C(=O)N(C)C2=O	/	30	-47	-7	/	/	i	38
Nc1nnc(SCCOc2ccccc2)s1	-18	4	0	1	8	/	i	-5
CCOC(=O)N1CCN(CC(O)COc2ccc(C(C)C)c(C)c2)CC1 (stereo not drawn)	-14	7	2	3	-4	7	i	-13
N/C(=C\C(=O)c1cc(Cl)ccc1O)C(Cl)(Cl)Cl	-10	6	-1	-2	85*	-300	i	0
NC(=O)c1ccccc1NC(=O)c1ccoc1	0	-6	-1	0	-3	2	i	-8
CC(Sc1nc2ncc(Cl)cc2[nH]1)C(=O)Nc1ccc(C(N)=O)cc1 (stereo not drawn)	17	/	2	9	-4	2	i	/
O=C(Nc1ccccc1N1CCOCC1)c1ccc2c(c1)OCCO2	-13	15	-2	-1	-10	14	i	-4
Cc1ccc(-n2c(SCC(=O)NCc3ccco3)nc3sc(C)c(C)c3c2=O)cc1	-4	1	2	-1	/	-83	i	-6
COc1ccccc1/C=C1\SC(=O)N(CCC(=O)NCCCn2ccnc2)C1=O	8	5	1	-3	97*	-2	i	6
COc1ccc(C(CNC(=O)CNC(=O)c2ccccc2)N2CCCC2)cc1 (stereo not drawn)	-13	/	3	1	-10	1	/	/
O=C(c1ccc(CSc2ccccc2)cc1)N1CCCCCC1	-2	14	0	-5	34	-17	i	1
O=C(O)c1ccc(N=NN2CCOCC2)cc1	/	-8	-5	-1	17	-24	i	-7
CC1CN(CCCCOc2ccc3ccccc3c2)CC(C)O1 (stereo not drawn)	/	10	-2	1	29	6	i	-1
S=c1[nH]nc(-c2cc3ccccc3o2)n1Cc1ccccc1	-15	-5	6	0	0	/	i	-3
CN(C)C(=O)c1cccc(-c2cnc3c(NC=O)cc(-c4cccc(F)c4)cn23)c1	-7	/	-6	-13	/	-15	/	/
Cc1cc(=O)[nH]c(SCC2(O)C3CC4CC(C3)CC2C4)n1 (stereo not drawn)	-2	-2	-2	3	8	/	i	0
CC(C)=CC(=O)OCC(=O)NC1CCCc2ccccc21 (stereo not drawn)	-15	36	2	-1	-3	-9	i	1
CCC(C)NC(=O)c1cn(CC)c2ccc(S(=O)(=O)N(C)C)cc2c1=O (stereo not drawn)	-5	-13	8	7	/	-3	i	-1
CC12CN3CC(=O)N4CC5(C)CN(CC(C)(C4)C5=O)C(=O)CN(C1)CC(C)(C3)C2=O	-4	16	2	3	-2	-59	i	6
O=C(CS(=O)(=O)c1ccc(Cl)cc1)NCCS(=O)(=O)c1ccc(Cl)cc1	-9	1	4	-4	-10	0	i	9
O=C(NCCOc1ccc(F)cc1)C1CCC(=O)N(CC2CCCCC2)C1 (stereo not drawn)	-7	0	-1	2	-30	0	i	-5
S=C1N(c2ccccc2)C(c2ccc(Cl)cc2)N2CCCN12 (stereo not drawn)	-14	-8	-1	2	8	-47	i	0
O=C(Nc1cccc([N+](=O)[O-])c1)c1ccc2c(c1)OCO2	-15	-8	0	-4	7	-54	i	2
COc1ccc(S(=O)(=O)NC2CCCC2)c(Cl)c1Cl	-5	-4	0	0	-13	-4	i	0
O=C(Nc1nc2ccc(F)cc2s1)C1=COCCO1	-64	/	3	-4	16	-23	i	/
CC(NC(=O)[C@H](Cc1c[nH]c2ccccc12)NC(=O)[C@@H]1Cc2ccccc2CN1)c1ccccc1 (stereo partly drawn)	-20	4	0	-1	6	/	i	-3
CN1CCN(C(=O)c2c(NC(=O)c3ccco3)sc3c2CCC(C(C)(C)C)C3)CC1 (stereo not drawn)	4	-6	0	-4	-9	-1	/	-15
N#Cc1cc2c(nc1Cl)CCCC2	-15	-1	-3	0	0	-28	i	-4
Cc1cc(S(=O)(=O)NC2CCCCC2)ccc1OCC(=O)N1CCOCC1	/	2	-3	-7	-10	/	i	4
CN(Cc1ccccc1)S(=O)(=O)c1ccc(OCC(=O)N2CCOCC2)cc1	-5	-8	1	-1	-7	-1	i	-13
COc1cccc(CN2CCN(CCCc3ccccc3)C(CCO)C2)c1OC (stereo not drawn)	-12	-3	-4	-1	8	0	i	4
COC(=O)C1=C(C)NC(=O)CC1c1cccc(Cl)c1Cl (stereo not drawn)	-11	-24	1	0	0	11	i	-5
CCC(=O)c1cn(CC(=O)Nc2ccccc2F)c2ccccc12	-4	11	0	-3	-8	17	i	8
COC(=O)c1cc(NC(=S)NC(=O)c2ccccc2)ccc1N1CCOCC1	-16	5	2	-2	-14	0	i	-2
CCc1sc(C(=O)Nc2nc(-c3ccccn3)cs2)cc1C	-42	/	1	0	49	/	/	/
Cc1cccc(-c2nnc(SCc3ccc(C#N)cc3)n2Cc2ccco2)c1	-16	-1	-4	-9	3	11	+	4
COc1ccc(C2=NN(C(=O)CSc3nc(=O)n4cc(C)ccc4n3)C(c3ccc(C)cc3)C2)cc1 (stereo not drawn)	-1	/	-3	-8	-3	17	i	/
COc1ccccc1CNC(=O)c1ccc(Cl)c(NC2=NC3CS(=O)(=O)CC3S2)c1 (stereo not drawn)	-17	-9	2	3	-8	-1	i	-12
Clc1ccc2oc(-c3ccccc3)cc(=NCCCN3CCOCC3)c2c1	/	-3	1	2	/	-131	/	-6
Remaining list, next part
SMILES	Yeast UUG start	PABP polyA inh	MT1-MMP act inh	MT1-MMP act inh RFP	CSC inhib	Env fusion inh	Rce1 inh	eIF4H inh
Cc1ccc(NC(=O)C2CCN(c3ncnc4c3nc3n4CCCCC3)CC2)nc1	4	-8	-5	-27	-1	-6	i	1
CCC1CCCCN1C(=O)c1ccc(OC2CCN(C(=O)C3CC3)CC2)cc1 (stereo not drawn)	6	2	1	-6	-7	3	i	0
N#Cc1ccccc1OCC(=O)NC(N)=O	-4	8	0	2	-1	/	i	-6
CN1C(=O)NC(c2ccc(O)cc2)C2=C1CN(c1cccc3ccccc13)C2=O (stereo not drawn)	1	7	-12	-8	-5	1	i	14
Cc1c(C(=O)Nc2ccc3oc(-c4cccnc4)nc3c2)oc2ccccc12	-17	0	12	3	1	-42	i	-1
Cc1cc(C(=O)NCC2CCCCC2)ccc1[N+](=O)[O-]	-23	0	1	-1	-1	4	/	-6
CC(C)(C)OC(=O)NCCCCCNC(=O)c1nc[nH]c1C(=O)NCCCCCNC(=O)OC(C)(C)C	13	/	-2	-28	/	21	/	/
O=C(CN(C(=O)CNC(=O)c1cccs1)c1cccc(F)c1)NC1CCCC1	-10	9	-2	-2	-13	-23	i	-8
O=C(Nc1ccccc1O)c1ccc([N+](=O)[O-])cc1	-2	-3	8	6	23	15	i	5
Cc1cccc(COC(=O)C(Cc2ccccc2)NC(N)=O)c1 (stereo not drawn)	2	-4	1	3	-5	3	i	-15
CC(=O)N1c2ccc(S(=O)(=O)N3CCC(C(=O)NC4CCCC(C)C4C)CC3)cc2CC1C (stereo not drawn)	-14	2	0	-4	-11	0	i	16
COc1ccc(Cl)cc1NC(=O)CSc1nc(N2CCCCC2)nc(N2CCCCC2)n1	-4	-6	-5	-6	12	/	i	-7
CCCCCn1c(NCc2ccco2)nc2ccccc21	-17	4	3	-2	0	-13	i	3
Clc1ccc(-c2csc(N/N=C\c3cccnc3)n2)cc1	/	18	-1	-9	-13	18	i	-3
C/C(=N/NS(=O)(=O)c1ccccc1)c1ccc(Cl)cc1	/	-7	-3	0	-6	10	i	-8
COc1ccc(C)cc1NC(=O)Nc1cccc(C)c1	/	-2	-1	0	-20	23	i	2
CCN1C(=O)[C@H]2[C@@H](c3ccccc3)N[C@]3(CCCN(Cc4ccccc4)C3=O)[C@H]2C1=O	-18	/	1	0	/	12	/	/
CC(C)(C)c1ccc(C(=O)NCC(=O)OCC(=O)N2CCCC2)cc1	-3	/	3	4	-7	/	/	/
CCN(CC)C(=O)CSc1nc2ccccc2c(=O)[nH]1	/	1	-8	-1	-7	/	i	-6
CN(Cc1cccs1)C(=O)CCc1ccc(S(=O)(=O)N2CCOCC2)cc1	0	-5	-3	3	-29	-63	i	6

These rows are one share of the data; count on the stated rates, not on these rows.
